# VDR inh = inhibitors of human vitamin D receptor; VDR-SRC2-3 peptide fluorescence polarization, 2 h; Potency, µM, inactives show max response, negative = inhibition, usual class: inhibitors; 400,000 compounds, 0.93% hits; active = well fitted inhibition curve with a large enough effect; inconclusive = small, poorly fitted or top-dose-only effect, or another doubt; inactive = no such curve, though single readings can be large or run the other way; note: series mostly up to about 120 µM
# Target sequence (P11473 whole entry, looked up): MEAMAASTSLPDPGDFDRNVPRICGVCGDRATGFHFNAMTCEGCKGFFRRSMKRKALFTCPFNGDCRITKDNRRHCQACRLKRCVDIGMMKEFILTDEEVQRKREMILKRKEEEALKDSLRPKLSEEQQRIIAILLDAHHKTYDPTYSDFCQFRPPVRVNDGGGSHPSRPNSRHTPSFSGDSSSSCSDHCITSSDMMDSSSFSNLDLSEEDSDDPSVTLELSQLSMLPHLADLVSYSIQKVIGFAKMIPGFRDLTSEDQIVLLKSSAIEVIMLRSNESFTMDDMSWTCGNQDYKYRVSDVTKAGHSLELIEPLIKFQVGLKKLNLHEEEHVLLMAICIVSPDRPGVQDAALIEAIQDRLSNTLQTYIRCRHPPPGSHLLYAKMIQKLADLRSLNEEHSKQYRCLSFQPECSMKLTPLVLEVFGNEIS
#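 Compounds are added to VDR with labelled SRC2-3 coactivator peptide and held 2 h at room temperature. Inhibition of the VDR–peptide interaction is then read as a change in fluorescence polarization.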
# * hit, by the source's call; ? = inconclusive; & = joins results of further samples; ! = repeats disagree; [ ] = remark or other dose. % is set by controls: 0 for no effect and ±100 for the full control effect; potency is the fitted concentration of half-maximal effect. Some of the compounds tested. The share of hits here may be higher or lower than overall.
VDR inh,SMILES
-8.2%,O=C(Nc1nnc(-c2ccccc2)o1)c1cc(Cl)sc1Cl
-4.0%,Fc1ccc(Cl)cc1-c1nc(Nc2ccncc2)c2nccnc2n1
0.1%,COc1ccc(N2CCN(C(=O)c3ccccc3Br)CC2)c([N+](=O)[O-])c1
-6.6%,COc1cccc(CNC(=O)CN2C(=O)CCSc3ccc(S(=O)(=O)N4CCCC4)cc32)c1
-12.5%,COC(=O)c1c(NC(=O)C2CC2)sc2c1CCCC2
-17.9%,CCOC(=O)N1CCN(C(=O)c2ccc(Cn3c(=S)[nH]c4cc(C(=O)OC)ccc4c3=O)cc2)CC1
-14.6%,N#C/C(C(=O)NCc1ccccc1)=C1/N=C(NC(=O)c2cccs2)c2ccccc21
-9.8%,N#Cc1cc(Br)ccc1N=C1CCCN1c1ccccc1
8.6%,CCOC(=O)c1ccc2c(c1)N(Cc1ccccc1)C(=O)c1ccccc1S2
-3.5%,CCCNc1c(N)c(=O)oc2ccccc12
-26.5%,O=C(N/N=C/C=C/c1ccco1)c1cccs1
-9.4%,Cc1cc(O)c2/c(=N\N)c(-c3csc(C)n3)coc2c1
18.0%,CN=C1SC(CC(=O)Nc2cc(Cl)ccc2Cl)C(=O)N1C (configuration not stated)
?,COc1cc(N2C(=O)c3ccccc3C2=O)c(Cl)cc1C(=O)OCC(=O)N(C)C
7.3%,COc1cc2c(=O)n(Cc3ccco3)c(=O)n(CC(=O)c3ccc(Br)cc3)c2cc1OC
1.1%,COc1ccc(S(=O)(=O)N2CCCCC2)cc1NC(=O)C1CSC2(C)CCC(=O)N12 (configuration not stated)
-15.3%,COC(=O)C1CC(=O)N(c2ccc(OCc3ccccc3Cl)cc2)C1 (configuration not stated)
-1.8%,Cc1ccc(C)c(NC(=O)COC(=O)CCC(=O)c2cccs2)c1
0.1%,COc1cccc(-c2ccc(SCC(=O)c3ccccc3)nn2)c1
4.4%,CCOC(=O)Cc1csc(NC(=O)CCCC(=O)O)n1
-2.7%,O=C(NCCCO)c1ccc2[nH]c3ccccc3c2c1
8.2%,O=C(COc1ccccc1Cl)NNC(=O)c1cc(S(=O)(=O)N2CCOCC2)ccc1N1CCCC1
-20.8%,COC(=O)C/C(N)=C(\C#N)C(=O)OC
29.0%,CC(C)(CO)NCc1c(OCc2ccc(Cl)cc2)ccc2ccccc12
-2.7%,O=C(CNC(=O)C1COc2ccccc2O1)N/N=C\c1ccccc1Cl (configuration not stated)
7.0%,COc1ccc(-c2noc(CN(C(=O)c3ccc4c(c3)OCO4)C(C)C)n2)cc1
14.5%,Cc1cccc(NC(=O)CS(=O)(=O)Cc2ccccc2)n1
20.5%,COc1cc(C(=O)NCCOc2ccccc2C)cc(OC)c1OC
0.5%,Cc1ccc(CC2CC(=O)N(c3nc4ccccc4s3)C2=O)cc1 (configuration not stated)
13.4%,CCOc1ccccc1N(C)C(=O)C1CCCN(c2ncnc3c2nc2n3CCCCC2)C1 (configuration not stated)
-0.2%,Cn1c(SCC(=O)NNC(=O)Cc2ccccc2)nnc1-c1ccccc1
12.6%,Cc1[nH]c(=O)[nH]c(=O)c1S(=O)(=O)N1CCC(C(=O)N2CCN(c3cccc(C(F)(F)F)c3)CC2)CC1
5.1%,Cc1ccc(/C=N/NC(=O)c2nnn(-c3nonc3N)c2C)o1
-8.4%,CSc1ccccc1NS(=O)(=O)c1ccc2c(c1)OCCO2
17.5%,Cc1cc(C)cc(NC(=O)CC2Oc3ccc(C)cc3NC2=O)c1 (configuration not stated)
13.1%,Cc1cc(C(=O)COC(=O)CN=C2NS(=O)(=O)c3ccccc32)c(C)n1CCc1ccc(Cl)cc1
3.1%,Cc1ccc2c(c1)N(CC(=O)N1CCCCC1c1cccnc1)C(=O)CO2 (configuration not stated)
-13.8%,COc1ccc(OC)c(-c2nnc3n2N=C(c2ccc(OC(F)F)c(OCC4CC4)c2)CS3)c1
5.4%,Cc1ccccc1-n1nc(SCC(=O)O)sc1=S
-17.8%,CCc1ccc(/C=N/NC(=O)c2nnn(-c3nonc3N)c2CN2CCc3ccccc32)cc1
-25.1%,CC(=O)Nc1nc(C(F)(F)F)cs1
-3.2%,O=S(=O)(c1cccc(NC(=S)N2CCN(c3ccccc3)CC2)c1)C(F)F
4.2%,C/C(=N\Nc1nncc2ccccc12)c1ccc(Cl)c([N+](=O)[O-])c1
9.3%,CCN1C(=O)/C(=C/c2ccc(OC)c(OC)c2)N=C1SCC(=O)NCc1ccco1
-21.5%,Fc1ccc(-n2nnc(-c3cccnc3)n2)cc1
-4.4%,COc1ccc(CNc2ncccc2[N+](=O)[O-])cc1
-3.2%,O=C(c1ccc(C(F)(F)F)cc1)C1CCCN(C(=O)CCN2CCCO2)C1 (configuration not stated)
-8.0%,COCc1ccc(C(=O)N2CCCC(N(C)CCc3ccc(OC)c(OC)c3)C2)s1 (configuration not stated)
5.1%,COc1ccc(S(=O)(=O)NNC(=O)c2ccc([N+](=O)[O-])cc2)cc1
20.8%,Cc1cc(NC(=O)COC(=O)c2cc3c(s2)CCC(C)C3)no1 (configuration not stated)

# More compounds
VDR inh,SMILES
-2.5%,Nc1cc(N)nc(SCC(=O)NCCC2=CCCCC2)n1
-16.3%,COC(=O)C(CCSC)NC(=O)c1cccc([N+](=O)[O-])c1 (configuration not stated)
-6.0%,COc1cc(S(=O)(=O)NC2CC(C)(C)NC(C)(C)C2)c(OC)cc1Cl
-0.4%,COCC(=O)NC1CCCCCC1
-9.3%,CCOCCCN(C)C1CCN(C(=O)c2oc3ccccc3c2NC(=O)c2cccc([N+](=O)[O-])c2)CC1
7.5%,O=C(CSc1nc2ccccc2c(=O)[nH]1)Nc1ccccc1O
-3.0%,CCc1ccccc1N1C(=O)c2ccccc2S1(=O)=O
28.6%,COc1ccc(CNC(=O)CN(Cc2ccccc2F)C(=O)c2csnn2)cc1
31.6µM*,CCc1ccc(C(=O)/C=C/c2ccc([N+](=O)[O-])o2)cc1
-5.1%,CNC(=O)c1ccccc1Nc1ccc(SC(F)F)cc1
12.7%,CCN(CC)S(=O)(=O)c1cc(NC(=O)CN2C(=O)NC(C)(c3ccccc3)C2=O)ccc1C (configuration not stated)
5.2%,O=C(NCc1ccc(Cl)cc1)c1cc2c(s1)-c1ccccc1SC2
-10.8%,COc1cccc(CN2CCN(C(=O)c3cc(-c4ccncc4)nc4ccc(C)cc34)CC2)c1
-16.1%,Cc1csc(SCC(=O)Nc2sccc2C(N)=O)n1
3.7%,CCOc1ccc(N/C(=N/c2nc(C)cc(C)n2)NC(C)=O)cc1
5.0%,COc1cccc(CN(C)C(=O)c2ccc(NC(=O)CC3SC(N4CCCC4)=NC3=O)cc2)c1OC (configuration not stated)
-6.9%,O=C(NCc1nc(-c2ccc(Cl)cc2)no1)c1ccc2c(c1)OCO2
6.6%,CC(Oc1ccccc1)C(=O)N/N=C/c1ccccn1 (configuration not stated)
?,COCCOc1ccc(C(F)(F)F)cc1Nc1nc2ccccc2o1
17.0%,COc1ccc(-n2ncc(C(=O)Nc3cccc(C(F)(F)F)c3)c2C2CCN(C(=O)OC(C)(C)C)CC2)cc1
83.6%[activator],COc1ccc(Nc2ncc(C(=O)Nc3cc(C)ccc3OC)c3ccccc23)cc1
-11.2%,CCC(CC)C(=O)Nc1ccc([N+](=O)[O-])cn1
1.4%,COCCCNC(=O)CSc1nc2cc3c(cc2c(=O)n1CCCC(=O)NCc1ccc2c(c1)OCO2)OCO3
-7.7%,CC(C)Oc1ccc(C(=O)Nc2ccccc2N2CCCC2)cc1
-1.7%,O=C(COc1ccccc1[N+](=O)[O-])N(Cc1cccc(Br)c1)C1CCS(=O)(=O)C1 (configuration not stated)

# Another view of two compounds above:
structure | VDR inh
COc1cccc(CNC(=O)CN2C(=O)CCSc3ccc(S(=O)(=O)N4CCCC4)cc32)c1 | -6.6%
O=S(=O)(c1cccc(NC(=S)N2CCN(c3ccccc3)CC2)c1)C(F)F | -3.2%

# Structures from the list above with an aryl thioether with sulfur outside any ring, in the order listed:
VDR inh,SMILES
0.1%,COc1cccc(-c2ccc(SCC(=O)c3ccccc3)nn2)c1
-0.2%,Cn1c(SCC(=O)NNC(=O)Cc2ccccc2)nnc1-c1ccccc1
-8.4%,CSc1ccccc1NS(=O)(=O)c1ccc2c(c1)OCCO2
5.4%,Cc1ccccc1-n1nc(SCC(=O)O)sc1=S
-2.5%,Nc1cc(N)nc(SCC(=O)NCCC2=CCCCC2)n1
7.5%,O=C(CSc1nc2ccccc2c(=O)[nH]1)Nc1ccccc1O
-5.1%,CNC(=O)c1ccccc1Nc1ccc(SC(F)F)cc1
-16.1%,Cc1csc(SCC(=O)Nc2sccc2C(N)=O)n1
1.4%,COCCCNC(=O)CSc1nc2cc3c(cc2c(=O)n1CCCC(=O)NCc1ccc2c(c1)OCO2)OCO3

# The listing continues:
VDR inh,SMILES
-8.4%,CCCCn1c(N)c(N(Cc2ccccc2OC)C(=O)COc2ccccc2C#N)c(=O)[nH]c1=O
-15.5%,O=C(CS(=O)(=O)c1ccc(F)cc1)N1CCN(c2ccccc2)CC1
-0.5%,CCOC(=O)N1CCN(C(=O)COc2cccc3c2CCN(CC)C3=O)CC1
2.7%,CCOc1cc(C(=O)N2CCN(c3ccc(C(C)=O)cc3)CC2)cc(OCC)c1OCC
4.0%,CC(OC(=O)CN1C(=O)NC2(CCCC2)C1=O)C(=O)c1ccccc1 (configuration not stated)
8.8%,COc1ccccc1-n1c(SCC(=O)N2CCCC2)nnc1-c1ccccc1
-11.4%,COc1cccc(/C=N/n2cncn2)c1OCC#N
-8.0%,COc1ccc(C(C)=O)cc1Cn1c(=O)cc(C)[nH]c1=O
4.6%,CCC(C)N(C(=O)COc1ccccc1C(=O)NCc1ccccc1)C1CCS(=O)(=O)C1 (configuration not stated)
-17.8%,COc1cc2c(cc1OC)C(c1ccccc1F)NCC2 (configuration not stated)
-3.8%,O=C(COC(=O)CCOc1ccccc1)Nc1ccc(Cl)cn1
-17.9%,Cc1nnn(C23CC4CC(CC(C(=O)NN)(C4)C2)C3)n1
-6.7%,Cc1nnc(SCC(=O)N2CCC(C(N)=O)CC2)s1
-16.0%,CCc1ccc2nc(N(CCCN(C)C)C(=O)c3ccc(S(=O)(=O)N4CCc5ccccc5C4)cc3)sc2c1
16.8%,Cc1ccc(N(C(=O)c2csnn2)C(C(=O)NC(C)(C)C)c2ccncc2)cc1 (configuration not stated)
-7.1%,COc1ccc(C(=O)N/N=C/c2ccc(OC)c(CN3CCN(c4ccc(F)cc4)CC3)c2)cc1
-6.8%,CCc1ccc(/C=N/NC(=O)c2c[nH]c3ccccc23)s1
-9.9%,COc1ccccc1/C=C/c1onc(C)c1S(=O)(=O)N1CCC(C(=O)NC2CCCCCC2)CC1
-14.0%,CCOC(=O)C(=CNc1cc(Cl)c(-c2ccco2)c(Cl)c1)C(=O)OCC
-9.6%,CN(C)Cc1c(-c2ccc(Cl)cc2)nc2ccc(Cl)cn12
12.7%,CC(=O)Nc1cccc(C(=O)NCCc2ccco2)c1
-4.6%,CCOc1ccc(N(CC(=O)NC2CCCCCC2)S(=O)(=O)c2c(C)noc2C)cc1
-14.2%,CC(=O)N1CCc2cc(Br)cc(S(=O)(=O)NCCCN(C)Cc3ccccc3)c21
?,CCC1(c2ccccc2)NC(=O)N(CC(=O)N(CC(=O)Nc2ccccc2C(F)(F)F)Cc2ccco2)C1=O (configuration not stated)
35.5µM*!,Oc1cc(O)c2c(c1)OC(c1ccc(O)c(O)c1)C(O)C2 (configuration not stated)
22.2%,Cc1ccc(-c2noc(-c3ccc(N4CCCC4)c([N+](=O)[O-])c3)n2)cc1
16.4%,COCCn1c(C)cc(C(=O)CN2c3cccc4cccc(c34)S2(=O)=O)c1C
7.0%,COc1ccc2oc(C)c(C(=O)c3ccc(C)cc3)c2c1
-12.8%,Cc1ccc(C2(SCC(N)C(=O)O)c3ccccc3-c3ccccc32)cc1 (configuration not stated)
0.3%,NC(=O)N(CCC(=O)O)c1ccccc1
-27.5%,CSc1ccc(C(c2c(C)[nH][nH]c2=O)c2c(C)[nH][nH]c2=O)cc1
-11.9%,COc1cc2c(cc1OC)C(COc1ccccc1OC)N(C(=O)CC(C)C)CC2 (configuration not stated)
1.1%,COc1cccc(-c2nn(-c3ccccc3)cc2CN2CCCO2)c1
-0.8%,O=C(Cn1ncn2nc(-c3cccs3)cc2c1=O)NCc1ccccc1Cl
3.5%,O=C(O)C/C(=C\c1ccc2c(c1)OCO2)c1nc2ccccc2s1
20.5%,CCc1ccc(Nc2nnc(SCC(=O)Nc3cccnc3Cl)s2)cc1
-7.9%,CCN(CCCNC(=O)c1nn(-c2ccc(OC)cc2)c(=O)c2c1c1ccccc1n2C)c1ccccc1
-8.1%,Cc1ccc2nc(Cl)c(C3CC(c4cccs4)=NN3C(=O)CCC(=O)O)cc2c1 (configuration not stated)
7.1%,CCC(C)Sc1nnc(NC(=O)C2CCN(C(=O)c3ccco3)CC2)s1 (configuration not stated)
-15.0%,COc1ccc(OC)c(S(=O)(=O)Nc2cc3c4c(c2)C(C)C(=O)N4CCC3)c1 (configuration not stated)
1.0%,CNC(=O)C1C2C=CC3(O2)C1C(=O)N(CCOC)C3C(=O)NCc1ccc(OC)cc1 (configuration not stated)
-7.3%,Cc1ccc(CNC(=O)c2nnn(Cc3ccc(F)cc3)c2N)cc1
-16.5%,CCc1ccc(-c2nc(CS(=O)CC(=O)NC3CC3)c(C)o2)cc1 (configuration not stated)
-20.1%,O=C(CNC(=S)NC(=O)c1ccc(Cl)cc1)c1ccccc1
-13.4%&11.6%,Cc1ccc2[nH]c3c(=O)n(CC(=O)NCCCN4CCN(c5ccc(F)cc5)CC4)ncc3c2c1
-14.6%,Cc1csc(=Nc2ccccc2)n1C
-6.6%,CC(/C=N\NC(=O)c1ccc(C)nc1)=C\c1ccccc1
1.6%,Cc1nc(-c2cccc(F)c2)sc1CCNC(=O)c1ccc(F)c(F)c1
-28.1%,c1csc(C2=Nn3c(nnc3-c3ccncc3)SC2)c1
9.0%,O=C(NN=C1c2ccccc2-c2ccccc21)c1ccccc1
